# Cruzain inh noDet: qHTS Assay for Promiscuous and Specific Inhibitors of Cruzain (without detergent) | 200,000 tested, 2.3% active | Potency, µM, inactives show max response, negative = inhibition, most hits filed as inhibitors | purified cruzain, Z-FR-AMC fluorescence, no detergent | Cruzipain (Trypanosoma cruzi), P25779;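 note: plate controls were enzyme without inhibitor for no effect and buffer without enzyme for full effect; nearly all actives have a fitted effect of over 40% in size; top concentration of the series not given in the record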
# Target sequence (P25779 123-467 limits assumed): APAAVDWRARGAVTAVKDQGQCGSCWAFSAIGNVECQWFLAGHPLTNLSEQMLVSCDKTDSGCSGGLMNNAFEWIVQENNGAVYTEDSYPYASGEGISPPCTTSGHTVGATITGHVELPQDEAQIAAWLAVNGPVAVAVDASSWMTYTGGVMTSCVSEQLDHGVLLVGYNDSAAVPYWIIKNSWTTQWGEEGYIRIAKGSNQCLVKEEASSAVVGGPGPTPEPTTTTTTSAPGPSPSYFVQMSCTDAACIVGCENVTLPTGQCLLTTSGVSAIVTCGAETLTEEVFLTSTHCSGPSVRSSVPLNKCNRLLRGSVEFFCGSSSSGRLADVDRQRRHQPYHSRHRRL
#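 Purified cruzain at 1.5 nM, pre-incubated 15 min with compound at room temperature in 100 mM sodium acetate pH 5.5, 5 mM DTT, 0.00005% Triton X-100. Reaction started with 2 uM Z-FR-AMC; AMC fluorescence increase over 60 s gives rate.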
# Cruzain inh Det: qHTS Assay for Promiscuous and Specific Inhibitors of Cruzain (with detergent). 200,000 tested, 0.43% active. Potency, µM, for inactives: max response, negative = inhibition, actives largely listed as inhibitors. purified cruzain, Z-FR-AMC fluorescence, 0.01% Triton. AID 1478, 2009. Cruzipain (Trypanosoma cruzi), P25779;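 note: plate controls were neutral wells for no effect and buffer without enzyme for full effect; nearly all actives have a fitted effect of over 40% in size; top concentration of the series not given in the record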
#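 Purified cruzain (1.5 nM final) was preincubated with compounds for 15 min at room temperature in 100 mM sodium acetate pH 5.5, 5 mM DTT, 0.01% Triton X-100. Reaction started with 2 uM Z-FR-AMC; AMC fluorescence change over 60 s gave activity.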
# SARS PLP yeast: qHTS of Yeast-based Assay for SARS-CoV PLP; 330,000 tested, 0.19% active; AID 485353, 2010; S. cerevisiae expressing SARS-CoV PLpro, growth rescue; control for the full effect not named in the record; Potency, µM (top dose mostly 32.9 µM), for inactives: top-dose activity, positive = growth rescue; active means well fitted rising curve with a large enough effect; inconclusive means small, poorly fitted or top-dose-only effect; inactive means no such curve, though single readings can be large or run the other way; note: 0% is about no effect; nearly all actives have a fitted effect of over 55% in size; growth read by luminescence after 48 h
# Marburg entry inh: qHTS for inhibitors of binding or entry into cells for Marburg Virus; Marburg virus pseudotyped entry inhibition, cell reporter; control for the full effect not named in the record; about a third of the inactives were read at about 46 µM; Potency, µM (titrated, usually from 37.8 µM), for inactives: at the top dose activity change, negative = inhibition, actives largely listed as inhibitors; 300,000 tested, 1.8% active; AID 540276, 2011; active = well fitted inhibition curve with a large enough effect; inconclusive = small, poorly fitted or top-dose-only effect, or effect the other way; inactive = flat fitted curve, though single readings scatter; tested in HEK293 cells; about a fifth of its hits are not listed in these tables; note: % is set by controls: 0 for no effect and ±100 for the full control effect; luciferase read-out
# NS1 inh: qHTS Assay for Inhibitors of Influenza NS1 Protein Function; S. cerevisiae slowed by influenza A NS1, growth recovery by OD600; Potency, µM (titrated, usually from 46.1 µM), inactives show at the top dose activity, positive = more growth; 270,000 tested, 0.4% active; AID 2326, 2010; active means well fitted rising curve with a large enough effect; inconclusive means small, poorly fitted or top-dose-only effect; inactive means no such curve, though single readings can be large or run the other way; note: nearly all actives have a fitted effect of over 50% in size
#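 Recovery from NS1-induced slow growth read by OD600 in budding yeast switched to galactose assay medium (pH 6.0, -URA) at 1:100 dilution. Compound 23 nl per well; the matching strain lacking NS1 serves as control.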
# StopGo reporter: High Throughput Screening for Foot and Mouth Disease Virus Antivirals; human cells with a luciferase reporter of 2A StopGo recoding; control for the full effect not named in the record; 410,000 tested, 1.2% active; Potency, µM (top dose mostly 57.9 µM), for the others: top-dose signal change, negative = less light; active = well fitted falling curve with a large enough effect; inconclusive = small, poorly fitted or top-dose-only effect; inactive = no such curve, though single readings can be large or run the other way; tested in HEK293T cells; note: % is set by controls: 0 for no effect and ±100 for the full control effect; nearly all actives have a fitted effect of over 45% in size; luciferase light after 4 h
# RE007 growth inh: qHTS Assay for Inhibitors of the HIV-1 protein Vpr; Potency, µM (titrated, usually from 92.2 µM), for inactives: top-dose activity change, negative = less growth; S. pombe RE007 Vpr strain, BacTiter-Glo ATP luminescence, 24 h; control for the full effect not named in the record; AID 651644, 2012; 360,000 tested, 0.21% active; active = well fitted falling curve with a large enough effect; inconclusive = small, poorly fitted or top-dose-only effect; inactive = no such curve, though single readings can be large or run the other way;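 note: % is set by controls: 0 for no effect and ±100 for the full control effect; nearly all actives have a fitted effect of over 50% in size; the assay follows cell death caused by Vpr and the record does not say whether a fall means rescue or toxicity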
#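 Fission yeast strain RE007, carrying one chromosomally integrated HIV-1 vpr copy, was seeded at OD 0.01 in PMG+AL medium with 23 nL pinned compound. After 24 h at 30 °C and 99% humidity, viability was read by BacTiter-Glo luminescence.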
# LASV entry inh: qHTS for Inhibitors of binding or entry into cells for Lassa Virus | Lassa virus pseudotype entry inhibition, cell reporter; control for the full effect not named in the record | Potency, µM (top dose mostly 37.9 µM), without a hit: at the highest dose activity change, negative = inhibition, hits mostly inhibitors | 300,000 tested, 1.2% active | AID 540256, 2011; active means well fitted inhibition curve with a large enough effect; inconclusive means small, poorly fitted or top-dose-only effect, or effect the other way; inactive means flat fitted curve, though single readings scatter; tested in HEK293 cells; note: % is set by controls: 0 for no effect and ±100 for the full control effect; nearly all actives have a fitted effect of over 50% in size; luciferase read-out
# * marks the source's active call; other numbers are inactive results; ? = inconclusive; . = no result given; & = joins results of further samples; [ ] = dose if it differs, or a comment. Unless noted, calls come from the whole dose curve; as a rule, active = well fitted curve in the direction sought with a large enough effect; inconclusive = small, poorly fitted or top-dose-only effect, or another doubt; inactive = no such curve, though single readings can be large; an effect the other way counts as inactive or inconclusive. Potency is the fitted concentration of half-maximal effect.
SMILES,Cruzain inh noDet,Cruzain inh Det,SARS PLP yeast,Marburg entry inh,NS1 inh,StopGo reporter,RE007 growth inh,LASV entry inh
CSc1nnc2n(-c3cccc(C)c3)c(=O)c3c4c(sc3n12)CCCC4,3%,-0.6%,.,14%[46.1 µM],.,-12%,.,0%[46.1 µM]
COc1ccc(S(=O)(=O)NC(CC(=O)NCc2ccco2)C(C)C)cc1 (stereo not drawn),-1%,-1.8%,-4%,13%,8%,1%,-21%,0%
Cc1ccc2nc(-c3cccnc3)c(Nc3ccc(C(C)C)cc3)n2c1,-8%,-2.6%,.,2%[46.1 µM],.,-1%,.,-18%[46.1 µM]
CCOc1ccc(NC(=O)c2cccc(NC(C)=O)c2)cc1S(=O)(=O)N1CCCC1,.,.,-5%,-16%,.,-25%,-8%,-16%
O=C(NCCc1c[nH]c2ccccc12)/C(=C\c1cccnc1)NC(=O)c1ccccc1F,.,.,0%,-3%[46.1 µM],2%,-1%,0%,6%[46.1 µM]
C=CCN1C(=O)c2ccc(C(=O)N(C)CC(=O)Nc3ccccc3Br)cc2C1=O,.,.,5%,12%,5%,-11%,-2%,?
Cc1cc(=O)[nH]c(SCC(=O)N(CCC#N)c2ccccc2)c1C#N,.,.,-1%,-2%[46.1 µM],.,-4%,-9%,-13%[46.1 µM]
O=C(Cc1cccs1)Nc1nc(-c2ccc(F)c(F)c2)cs1,.,.,-5%,-1%[46.1 µM],-1%,?,-23%,?
Cc1ccc(S(=O)(=O)N2CCCC2)cc1[N+](=O)[O-],-2%,-1.6%,22%,-1%,9%,-11%,1%,3%
FC(F)(F)c1cccc(N2CCN(C(=S)NCC3CCCO3)CC2)c1 (stereo not drawn),.,.,-6%,?,.,?,1%,?
CCN(CC)S(=O)(=O)c1ccc2c3c(cccc13)C(=O)N2,-1%,-4.2%,-7%,.,-4%,-6%,3%,.
Cc1ccc(NC(=O)C(=O)NCC(c2cccnc2)N2CCN(c3ccccc3F)CC2)cc1Cl (stereo not drawn),?,-2.3%,.,.,.,?,.,0%[46.1 µM]
O=C(c1ccc2c(c1)N(Cc1ccccc1)C(=O)c1ccccc1S2(=O)=O)N1CCC(Cc2ccccc2)CC1,1%,0.4%,.,2%[46.1 µM],.,9%,.,?
Cn1c(C(C#N)C(=O)Cc2cccc3ccccc23)nc2ccccc21 (stereo not drawn),?,-4.6%,-2%,-1%,5%,-4%,15%,3%
CCOC(=O)c1ccccc1NC(=O)c1ccc2nc[nH]c2c1,.,.,-1%,.,-3%,0%,8%,.
O=C(NCCc1cccs1)c1ccc(Cl)c(Cl)c1,.,.,1%,?,-32%,0%,23%,23%
CCc1nnc2c3ccccc3nc(Nc3ccccc3OC)n12,-9%,0.6%,.,-3%[46.1 µM],.,-17%,.,4%[46.1 µM]
O=C(/C=C/c1ccccc1)NC(=O)c1ccccc1O,.,.,-6%,-1%,-38%,1%,?,.
CCOC(=O)C1CCCN(C(=O)CC(C)c2ccccc2)C1 (stereo not drawn),4%,8.5%,3%,?,3%,.,-1%,15%
Cc1ccc(NC(=O)c2oc3c(c2C)-c2[nH]ncc2CC3)c(Cl)c1,-5%,-7.2%,.,-18%[46.1 µM],.,32%[activator],.,0%[46.1 µM]
Cc1ccc(-c2n[nH]c(=O)c3ccccc23)cc1S(=O)(=O)Nc1ccc(F)cc1,.,.,-1%,?,2%,1%,-14%,-13%
CCCn1c(N)c(N(CCOC)C(=O)c2ccccc2F)c(=O)[nH]c1=O,.,.,2%,-7%[46.1 µM],1%,19%,-7%,16%[46.1 µM]
Cc1nc(SCC(=O)Nc2ccc(F)cc2)c(C#N)c(C)c1CC(=O)c1ccc(Br)cc1,?,-0.5%,14%,?,1%,-16%,-8%,11µM*
CCn1c(C)nc2cc(C(=O)NNC(=O)CCC3CCCC3)ccc21,5%,-0.3%,28%,-5%,-8%,1%,4%,0%
NC(=O)C1CCN(CC(=O)c2c[nH]c3ccc(F)cc23)CC1,-8%,-1.8%,2%,5%,3%,-17%,8%,10%
CC(C)(C)C1CCc2c(sc(NC(=O)c3ccco3)c2C(N)=O)C1 (stereo not drawn),-25%,-22%,6%,4%,?,32%[activator],8%,-7%
COc1cccc(C(=O)N2CCC(C(=O)N3CCN(C)CC3)CC2)c1,.,.,11%,-1%[46.1 µM],-1%,-13%,10%,1%[46.1 µM]
CCCOc1ccc(C(=O)Nc2ccc(NC(=O)c3cccs3)cc2)cc1,.,.,2%,1%[46.1 µM],12%,7%,2%,-8%[46.1 µM]
O=C(NCCc1ccccc1)C(=O)NCC1OCCN1S(=O)(=O)c1ccc([N+](=O)[O-])cc1 (stereo not drawn),.,.,-1%,?,.,?,0%,?
O=C(Nc1ccccc1)c1ccccc1NC(=O)c1ccccc1C(=O)O,.,.,.,?,.,12%,-12%,-3%
COC(=O)c1ccc(Cl)c(NC(=O)c2cccc([N+](=O)[O-])c2C)c1,.,.,0%,?,0%,-19%,4%,?
COc1ccc(CCN(Cc2cccs2)S(=O)(=O)c2ccc(S(=O)(=O)N3CCC(C)CC3)cc2)cc1OC,2%,-1.2%,-5%,-6%,-3%,-3%,21%,13%
COc1cc(OC)c2c(c1)C(=O)OC2,-8%,-1.0%,-1%,?,2%,-17%,16%,?
Cc1ccc(S(=O)(=O)N2CCCC(C(=O)NNCC(=O)Nc3cc(F)ccc3F)C2)cc1 (stereo not drawn),.,.,0%,11%[46.1 µM],.,-16%,0%,-7%
O=C(NCCc1ccccc1)/C(=C/c1ccco1)c1ccccc1,-10%,-12%,-4%,-8%,-14%,0%,-9%,-1%
COc1ccc(Cn2ccc3nc(C)c(C(=O)Nc4cccc(SC)c4)cc3c2=O)cc1,?,-5.4%,.,.,.,-29%,.,-23%[46.1 µM]
COc1ccccc1N(CC(=O)NCCSCc1ccc(Cl)cc1)S(C)(=O)=O,?,-3.6%,0%,1%[46.1 µM],-5%,-20%&-33%,-7%,?
COc1cc(C(C)=O)ccc1OCc1cc(C(=O)N2CCSCC2)no1,.,.,.,11%,1%,-13%,1%,-1%
O=C(Cc1ccc(Cl)cc1)Nc1ccc(N2CCN(C(=O)c3ccco3)CC2)c(Cl)c1,?,3.3%,-1%,?,0.28µM*,?,-9%,?
COc1ccc(S(=O)(=O)NCc2ccc(C)cc2)cc1,-7%,1.6%,0%,?,-48%,2%,-6%,2%
COc1ccc(NC(=O)CCC(=O)c2ccc(-c3ccccc3)cc2)cc1,25µM*,-1.9%,2%,?,0%,-9%,-15%,4%
CCOc1ccc(CNC(=O)CCc2cn(C)c3ccccc23)cc1,.,.,-2%,-9%[46.1 µM],-31%,-9%,-10%,-2%[46.1 µM]
c1ccc(-c2nnc(SCc3nc4ccccc4[nH]3)n2Cc2ccco2)nc1,1%,-3.4%,1%,-20%,-6%,?,8%,-2%
CCOC(=O)c1sc(NC(=O)CCN2C(=O)c3cccc([N+](=O)[O-])c3C2=O)c(C(=O)OCC)c1C,-29%,2.4%,3%,?,4%,14%,-2%,8%
COc1ccc(C(=O)NCC(=O)N2CCC3(CC2)NCCc2[nH]cnc23)cc1,.,.,1%,.,9%,-7%,-8%,.
CCOC(=O)c1sc(NC(=O)CSc2ccccn2)c(C#N)c1C,-29%,3.0%,.,-29%,1%,.,1%,-23%
C/C=C/C=C\C(=O)Nc1cccc(C2=NOC3(C2)C[C@@H](C(N)=O)N(C(=O)/C(C)=C/C)C3)c1 (stereo partly drawn),.,.,0%,.,4%,1%,-12%,.
Fc1ccc(-n2c(-c3cccs3)nc3nc4ccccc4nc32)cc1,14%,-11%,22%,25%,-7%,-6%,-15%,3%
O=C(Cc1coc(-c2ccc(F)cc2)n1)Nc1ccccc1,5%,0.5%,-1%,0%,-53%,10%,2%,-23%
O=C(CCCN1C(=O)c2ccccc2C1=O)Nc1cccnc1,1%,-2.6%,-3%,18%,5%,12%,9%,0%

# Remaining list, next part.
SMILES,Cruzain inh noDet,Cruzain inh Det,SARS PLP yeast,Marburg entry inh,NS1 inh,StopGo reporter,RE007 growth inh,LASV entry inh
CCOC(=O)C1CCN(C(=O)CNS(=O)(=O)c2cccs2)CC1,-4%,4.7%,4%,1%,5%,33%[activator],-6%,-6%
O=C(COC(=O)c1cnccn1)c1ccc2c(c1)CCCC2,9%,-2.9%,-7%,?,-43%,-3%,-18%,2%
Cc1ccc(S(=O)(=O)N2CCN(C(=O)COC(=O)COc3ccc(Cl)cc3C)CC2)c(C)c1,.,.,.,-1%,.,-9%,0%,12%
O=C(CSc1ncnc2sc3c(c12)CCC3)NCC1CCCO1 (stereo not drawn),.,.,-8%,.,-4%,0%,17%,.
COc1cccc(NC(=O)NCCN2CCCCC2)c1,.,.,13%,.,1%,0%,-10%,.
CC12CN(C(=O)c3cccc([N+](=O)[O-])c3)C3(C#N)CC1CCC23C (stereo not drawn),.,.,-3%,.,2%,-2%,2%,.
Cc1ccc(NCc2nnc3n2CCCCC3)cc1,3%,2.7%,6%,18%,4%,.,-1%,5%
Clc1cccc(N2CCN(CCNc3nc4ccccc4n4cnnc34)CC2)c1,-7%,-7.2%,4%,3%,-15%,-7%,-6%,-11%
Cc1ccccc1OCC(=O)NNC(=O)CN1C(=O)c2ccccc2C1=O,-9%,-7.1%,-6%,5%,-1%,-13%,16%,-1%
CCCCN(Cc1cccs1)S(=O)(=O)c1cc(-c2cc(C)no2)ccc1C,-24%,-4.1%,.,.,.,-11%,.,-4%[46.1 µM]
Cc1cc(C(=O)COc2cccnc2[N+](=O)[O-])c(C)n1Cc1ccco1,.,.,2%,?,2%,-25%,3%,-32%

# Bioassay records (PubChem BioAssay)
